Insulin prom inh: TRM-6 insulin promoter activity inhibition; TRM-6 cells (human fetal islet line), insulin promoter-eGFP reporter, imaging; reporter expression induced with tamoxifen; inhibition, % at 2 µM; hit rate 0.9% among 130,000;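 active means inhibition above the mean plus 3 SD, with well images judged a real hit on visual review, cut at about 60% in these data, passing the limit was not always enough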
GALR2 ag: activates the human galanin receptor 2; O43603; GALR2-expressing cells, agonist activation read-out; activation, %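 (tested at 5 µM)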; hit rate 0.48% among 140,000;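 active means above mean plus 3 SD of all compounds, about 5% in these data, not always enough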;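 further: 0% = vehicle buffer wells and 100% = reference agonist at full effect; tested in CHO reporter cells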
Target sequence (O43603 whole entry, looked up): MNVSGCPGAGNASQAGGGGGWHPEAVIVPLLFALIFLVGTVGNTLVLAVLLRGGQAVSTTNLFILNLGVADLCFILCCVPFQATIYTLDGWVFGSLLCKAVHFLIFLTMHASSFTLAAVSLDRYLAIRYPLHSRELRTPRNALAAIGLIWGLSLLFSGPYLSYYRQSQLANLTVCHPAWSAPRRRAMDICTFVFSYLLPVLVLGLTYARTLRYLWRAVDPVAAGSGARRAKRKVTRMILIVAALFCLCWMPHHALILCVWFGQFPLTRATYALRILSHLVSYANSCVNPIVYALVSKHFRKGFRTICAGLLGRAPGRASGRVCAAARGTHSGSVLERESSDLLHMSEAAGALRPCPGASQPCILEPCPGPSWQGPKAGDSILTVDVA
RGS16-Gao: regulators of human RGS16-Galphao interaction. hit rate 0.38% among 220,000. O15492+P09471. bead-based flow cytometry RGS16-Galphao binding, fluorescence; actives lie on both sides. AID 1441. binding response (% of control), % at 10 µM;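 active means below 25% or above 175%, edge rows of some plates excepted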;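 further: Galphao activated by GDP with aluminum fluoride before binding; 100% = wells without compound and 0% = beads without RGS; some results beyond the cut were filed as inactive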
Target sequence (O15492 whole entry, looked up): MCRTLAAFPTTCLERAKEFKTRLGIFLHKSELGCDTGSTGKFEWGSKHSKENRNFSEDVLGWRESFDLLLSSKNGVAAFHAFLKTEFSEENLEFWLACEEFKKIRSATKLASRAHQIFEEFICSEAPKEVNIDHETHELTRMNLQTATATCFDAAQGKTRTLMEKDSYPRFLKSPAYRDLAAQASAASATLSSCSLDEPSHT
Target sequence (P09471 whole entry, looked up): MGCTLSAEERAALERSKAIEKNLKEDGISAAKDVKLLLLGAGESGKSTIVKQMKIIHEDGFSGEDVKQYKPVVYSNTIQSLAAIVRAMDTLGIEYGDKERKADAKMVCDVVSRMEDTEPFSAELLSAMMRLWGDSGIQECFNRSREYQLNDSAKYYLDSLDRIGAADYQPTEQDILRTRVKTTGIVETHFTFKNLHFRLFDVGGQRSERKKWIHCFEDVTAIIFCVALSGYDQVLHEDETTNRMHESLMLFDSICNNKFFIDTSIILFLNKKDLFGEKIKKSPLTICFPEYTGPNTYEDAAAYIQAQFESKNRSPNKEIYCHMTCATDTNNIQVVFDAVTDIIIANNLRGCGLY
HSV replic up: HSV replication enhancement. HSV replication augmentation in cells, fold increase. maximum fold increase. hit rate 0.005% among 220,000;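 active means peak rise of 1.5-fold or more in the series; tested in PC3 cells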;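 further: first round at 10 µM; read as green reporter fluorescence; hits show the peak of a series up to 25 µM; 1 = signal of infected wells without compound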
PKD1 kinase inh: blocks activity of human protein kinase D1. PKD1 kinase fluorescence polarization assay. hit rate 0.056% among 200,000. AID 797. Q15139. inhibition, %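 (about 10 µM by stock and volumes)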;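 active means inhibition of 50% or more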;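 further: controls were vehicle for no effect and a reference inhibitor for full effect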
Insulin prom inh cell count: recorded beside Insulin prom inh, whose call it bears; normalized cell count, %; measured here: cell count, toxicity; reference of the scale not given here;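 cells exposed to compound for 48 h; stained nuclei by imaging scaled within each plate; lower means fewer cells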
HSV replic up primary fold: recorded beside HSV replic up, whose call it bears; fold increase; compound at 10 µM; measured here: primary screen fold increase 10 uM; tested in PC3 cells;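 GFP signal in the first replicate; 1 = infected wells without compound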
Numbers without * were called inactive; i = inactive; . = not tested or not shown.

#	SMILES	Insulin prom inh	Insulin prom inh cell count	GALR2 ag	RGS16-Gao
1	Cn1c(=O)c2c(ncn2CC(=O)Nc2nc3ccc(F)cc3s2)n(C)c1=O	49	23	-0.5	103
2	S=c1[nH]nc(-c2cc(-c3ccccc3)n[nH]2)n1/N=C/c1c2ccccc2cc2ccccc12	.	.	.	98
3	CC1(C)Cc2nc3sc4c(SCC(=O)NC(c5ccccc5)c5ccccc5)ncnc4c3cc2CO1	.	.	0.0	96
4	CC(=O)c1cccc(S(=O)(=O)Nc2cccc(S(=O)(=O)NC3=NCCC3)c2)c1	4	146	-1.2	111
5	O=C(CN1C(=O)COc2ccccc21)N(Cc1ccc2c(c1)OCO2)CC1CCCO1 (configuration not stated)	-77	105	0.1	105
6	Cc1ccc(C)c(NC(=O)CSc2nnc([C@@H](N)Cc3ccccc3)o2)c1	9	51	-1.9	100
7	O=C1CC(C(=O)O)S/C(=N\NC(=O)c2ccccc2)N1 (configuration not stated)	33	111	-3.4	103
8	C=CCn1c(SCc2ccccc2)nc(O)cc1=O	.	.	0.2	102
9	COc1cccc(NC(=O)c2ccc(-c3ccccc3[N+](=O)[O-])o2)c1	44	128	.	108
10	FC(F)(F)c1cc(-c2ccccc2)nc2nc(N3CCOCC3)sc12	-25	97	.	98
11	COc1ccc(C(NC=O)c2cc(OC)c(OC)cc2Br)cc1OC (configuration not stated)	26	46	-0.2	54
12	COc1ccc(/C=N/NC(=O)Cn2cnc3ccccc3c2=O)cc1OC	43	94	-0.4	119
13	COc1ccc(-c2ncc3ccccn23)cc1OC	-32	116	-2.0	210
14	COc1ccc(N2CCN(C(=O)C(Cc3ccccc3)n3cccc3)CC2)cc1 (configuration not stated)	.	.	-1.6	108
15	Cc1ccc(C)c(NC(=S)N2CCN(Cc3ccccc3)CC2)c1	0	126	.	104

#	HSV replic up	HSV replic up primary fold	PKD1 kinase inh
1	i	0.98	-7
2	i	0.83	.
3	i	1.1	-1
4	i	0.93	-3
5	i	0.95	-12
6	i	1.2	-2
7	i	1.1	0
8	i	0.89	-9
9	i	0.95	1
10	i	0.83	0
11	i	1	-8
12	i	0.97	-10
13	i	1	-5
14	i	1.1	1
15	i	0.86	-10

The list continues.
#	SMILES	Insulin prom inh	Insulin prom inh cell count	GALR2 ag	RGS16-Gao
16	COc1ccc(-c2nnc(SCC(=O)N3CCC(Cc4ccccc4)CC3)o2)cc1OC	-73	92	-1.3	98
17	COc1cc(C=O)ccc1OCCOCCOc1c(C)cc(Cl)cc1Cl	-12	96	0.8	110
18	O=S(=O)(c1cccs1)N1CCC(CO)(Cc2cccc(F)c2)CC1	.	.	.	108
19	O=C(Nc1nc(-c2cccc([N+](=O)[O-])c2)cs1)c1cccc([N+](=O)[O-])c1C(=O)O	33	97	.	106
20	CN(C)CCCOC(=O)COc1ccc(Br)cc1	.	.	.	97
21	CC(C)CN1C(=O)c2ccc(C(=O)Nc3nccs3)cc2C1=O	26	147	-0.2	102
22	CCC(=O)Nc1ccc(/C(C)=N\NC(=O)c2ccc(C)s2)cc1	-36	113	-1.3	102
23	CC(=O)Nc1ccc(/C=N/NC(=O)c2cccs2)cc1	.	.	.	98
24	CCN1CCCc2cc(CN(CCN3CCOCC3)C(=S)Nc3cccc(Cl)c3)ccc21	.	.	.	101
25	COCCCNCC(=O)Nc1ccc(OC(F)(F)F)cc1	0	83	-0.7	103
26	COC(=O)c1ccc2[nH]c(C)c(CN3CCCC3)c(=O)c2c1	.	.	-1.0	98
27	COc1ccc2nc(NC(=O)CSc3nnc(C)s3)sc2c1	17	155	-0.9	109
28	Cc1ccc(C)c(N2CCN(C(=O)CN3C(=O)c4ccccc4C3=O)CC2)c1	.	.	-1.5	106
29	O=C(C1CC=CCC1)N1CCN(C(=O)C2CC=CCC2)CC1 (configuration not stated)	-381	84	-1.3	72
30	Fc1ccc(-c2cnn3c(-c4ccncc4)ccnc23)cc1	44	111	.	106

#	HSV replic up	HSV replic up primary fold	PKD1 kinase inh
16	i	0.92	-19
17	i	0.95	2
18	i	0.96	4
19	i	1	1
20	i	1.2	.
21	.	.	-7
22	i	0.89	-1
23	i	1	1
24	i	0.87	-8
25	.	.	-2
26	i	0.94	-3
27	i	0.99	1
28	i	0.88	1
29	i	0.93	-2
30	i	0.91	-8

(list continues)
#	SMILES	Insulin prom inh	Insulin prom inh cell count	GALR2 ag	RGS16-Gao
31	CN(Cc1ccccc1)C(=O)c1cccc(N2C(=O)NC3CC2(C)Oc2ccccc23)c1 (configuration not stated)	-28	138	-3.0	107
32	CCc1ccc(CNCc2cccs2)cc1	-47	106	.	105
33	CCOc1ccccc1N1CCN(C(=S)NC(=O)C23CC4CC(CC(C4)C2)C3)CC1	.	.	-1.4	106
34	Cc1nc(NC(=O)c2cc3c(C)nn(-c4ccccc4)c3s2)sc1C(=O)Nc1ccccc1	28	104	-1.2	91
35	Cc1sc2nc(COC(=O)c3ccc(N4CCCC(C)C4)c([N+](=O)[O-])c3)[nH]c(=O)c2c1C (configuration not stated)	-33	130	0.0	107
36	CC(=O)c1c(C)nn(CCC(=O)O)c1C	.	.	-2.2	109
37	c1csc(-c2nnc(COc3ccc4c(c3)OCO4)o2)c1	.	.	.	101
38	O=S(=O)(NCc1ccc(Cl)cc1)NCc1ccccc1F	15	123	.	98
39	CCc1ccccc1-n1c(SCC(=O)NC)nnc1-c1cccnc1	17	74	-2.4	107
40	Cc1cc(-c2nnc(CCC(=O)NC(Cc3ccccc3)c3ccccc3)o2)no1 (configuration not stated)	.	.	.	100
41	C=CCn1c(N2CCN(c3ccc(OC)cc3)CC2)nc2c1c(=O)[nH]c(=O)n2C	.	.	.	93
42	CC(=O)Nc1ccc(-c2nnc(SCC(=O)n3c4c(c5ccccc53)CCCC4)n2C)cc1	62	102	-0.2	103
43	CC(C)c1nnc(NC(=O)CCC(=O)N2CCN(c3ccccn3)CC2)s1	25	122	-1.2	102
44	CCc1ccc(C(=O)Nc2cccnc2Oc2ccc(Cl)cc2)cc1	.	.	.	101
45	O=C(COc1ccc(Cl)cc1)OCc1csc(Nc2ccccc2)n1	-2	57	0.1	44

#	HSV replic up	HSV replic up primary fold	PKD1 kinase inh
31	i	0.92	-8
32	i	0.96	-1
33	i	1.1	7
34	.	.	-10
35	i	1	7
36	i	0.97	-8
37	i	1	-6
38	.	.	-6
39	i	1.1	-14
40	i	1.1	5
41	i	1.1	4
42	i	1.1	0
43	i	0.65	-9
44	i	0.95	.
45	i	0.97	1

Following part:
#	SMILES	Insulin prom inh	Insulin prom inh cell count	GALR2 ag	RGS16-Gao
46	O=C(CCn1c(=O)c2ccccc2n(Cc2ccccc2)c1=O)NCc1ccc2c(c1)OCO2	26	74	-2.5	103
47	Cc1noc(C)c1COc1cccc(C(=O)NCc2cccc(Cl)c2)c1	-20	64	-1.7	103
48	COc1ccc(CNC(=O)CSc2ccsc2[N+](=O)[O-])cc1	10	97	.	105
49	COc1ccc(-c2cc(C(F)F)n3ncc(C(=O)Nc4cnn(Cc5ccccc5)c4)c3n2)cc1	.	.	.	99
50	CN(C)CCCNC(=O)c1ccc(-c2ccccc2)cc1	.	.	-1.4	104
51	Cc1ccccc1NC(=O)/C=C/c1cccs1	.	.	.	97
52	COc1ccc(/C=C/C(=O)N(C)Cc2cccs2)cc1S(=O)(=O)N1CCOCC1	.	.	.	101
53	Cc1ccc(-c2nnn(CC(=O)N(c3ccc(F)cc3)C(C(=O)NC(C)(C)C)c3ccco3)n2)o1 (configuration not stated)	73	119	-1.5	91
54	COc1ccc(C2CC(c3cccs3)n3nc(N)nc3N2)cc1 (configuration not stated)	.	.	-2.3	102
55	COc1ccc(C(=O)NCC(=O)N/N=C/c2cn[nH]c2-c2ccccc2)cc1	-15	76	.	79
56	CC1CCCCC12NC(=O)N(CC(=O)NC(=O)NCc1ccco1)C2=O (configuration not stated)	-5	83	-2.0	106
57	O=C(Cc1ccccc1)NCCCN1CCN(CCCNC(=O)Cc2ccccc2)CC1	-15	142	-1.6	104
58	NC(=O)Nc1ccccc1C(=O)N1CCC(O)(c2ccc(Cl)cc2)CC1	-31	151	-2.6	102
59	Cc1ccc(-c2nc(SCC(=O)c3c(N)n(C)c(=O)n(C)c3=O)n[nH]2)cc1	-48	68	.	107
60	O=C(CC1C(=O)NCCN1C(=O)Nc1ccc(F)cc1)Nc1ccc(F)cc1 (configuration not stated)	.	.	.	91

#	HSV replic up	HSV replic up primary fold	PKD1 kinase inh
46	.	.	-1
47	i	1.1	-1
48	i	0.93	-4
49	.	.	-13
50	i	0.95	0
51	i	1.2	0
52	i	0.95	1
53	i	1.2	-11
54	i	1.1	2
55	i	1.2	6
56	i	1	6
57	i	0.87	1
58	i	0.88	-3
59	i	0.91	-8
60	i	0.85	.

Taken from above.
In GALR2 ag, COc1ccc(-c2ncc3ccccn23)cc1OC reads -2.0
In RGS16-Gao, CCOc1ccccc1N1CCN(C(=S)NC(=O)C23CC4CC(CC(C4)C2)C3)CC1 reads 106
In Insulin prom inh, COc1ccc2nc(NC(=O)CSc3nnc(C)s3)sc2c1 reads 17
In HSV replic up primary fold, O=C(CN1C(=O)COc2ccccc21)N(Cc1ccc2c(c1)OCO2)CC1CCCO1 (configuration not stated) reads 0.95
In GALR2 ag, CC1(C)Cc2nc3sc4c(SCC(=O)NC(c5ccccc5)c5ccccc5)ncnc4c3cc2CO1 reads 0.0

Other entries.
#	SMILES	Insulin prom inh	Insulin prom inh cell count	GALR2 ag	RGS16-Gao
61	CC(=O)N1CCC(N(C(=O)Nc2ccc(Cl)cc2)C(C)C)CC1	.	.	.	107
62	O=S(=O)(NCCNc1ncc(C(F)(F)F)cc1Cl)C(F)(F)F	-18	148	.	103
63	O=C(Nc1ccc(Cl)c(S(=O)(=O)N2CCOCC2)c1)c1cc(-c2ccccn2)nc2ccccc12	.	.	.	99
64	Cc1[nH]c2ccccc2c1C(=O)COc1ccccc1	11	59	.	109
65	CC1(C)SC(=S)N(NC(=O)Nc2ccccc2)C1N(O)C(=O)Nc1cccc2ccccc12 (configuration not stated)	-44	77	0.1	97
66	COc1cc(CNn2nnnc2N)cc(Br)c1OCC(=O)NC(C)(C)C	6	49	-2.4	99
67	COc1cc([N+](=O)[O-])ccc1NC(=O)CSc1nnc(C)c(C)n1	.	.	.	20
68	CCN1CCCC1CNCc1cccc(OC)c1OCc1ccccc1 (configuration not stated)	.	.	-0.7	105
69	Cc1ccc(-c2csc(NC(=S)NC(=O)/C=C/c3ccco3)n2)cc1	17	109	-2.7	98
70	CC(C)(C)OC(=O)NCCCC[C@H](NC(=O)c1nc[nH]c1C(=O)NC(c1ccccc1)c1ccccc1)C(=O)OC(C)(C)C	.	.	.	101
71	O=C(COC(=O)c1ccc(Br)cc1)NCCC1=CCCCC1	0	105	.	100
72	O=C(Nc1ccc(Cl)cc1)Nc1nc(-c2ccccc2)cs1	15	116	.	92

#	HSV replic up	HSV replic up primary fold	PKD1 kinase inh
61	i	0.83	.
62	i	0.97	7
63	i	0.85	-3
64	i	1	-2
65	i	0.98	-2
66	i	0.8	-2
67	i	0.95	5
68	i	1	5
69	i	0.61	6
70	i	0.72	-7
71	i	1.1	1
72	i	1.1	10

2 compounds drawn at random from the list so far:
#	SMILES	Insulin prom inh	Insulin prom inh cell count	GALR2 ag	RGS16-Gao
17	COc1cc(C=O)ccc1OCCOCCOc1c(C)cc(Cl)cc1Cl	-12	96	0.8	110
48	COc1ccc(CNC(=O)CSc2ccsc2[N+](=O)[O-])cc1	10	97	.	105

#	HSV replic up	HSV replic up primary fold	PKD1 kinase inh
17	i	0.95	2
48	i	0.93	-4

Compound activity as filed in PubChem BioAssay.
